RE007 growth inh – less growth of the S. pombe RE007 Vpr strain. S. pombe RE007 Vpr strain, BacTiter-Glo ATP luminescence, 24 h; control for the full effect not named in the record. 0.21% of 360,000 active. AID 651644. Potency, µM (highest dose often 92.2 µM), without a hit: at the highest dose activity change, negative = less growth; active = well fitted falling curve with a large enough effect; inconclusive = small, poorly fitted or top-dose-only effect; inactive = no such curve, though single readings can be large or run the other way;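 further: nearly all actives have a fitted effect of over 50% in size; the assay follows cell death caused by Vpr and the record does not say whether a fall means rescue or toxicity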
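Fission yeast RE007 carrying one integrated HIV-1 vpr copy, seeded at OD 0.01 in PMG+AL medium with 23 nL pinned compound. Grown 24 h at 30 degrees; viability read by BacTiter-Glo luminescence after 5 min.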
StopGo reporter – lowers the luciferase signal of an FMDV 2A StopGo reporter | Potency, µM (highest dose often 57.9 µM), inactives show top-dose signal change, negative = less light | human cells with a luciferase reporter of 2A StopGo recoding; control for the full effect not named in the record | AID 1159524 | 1.2% of 410,000 active; active = well fitted falling curve with a large enough effect; inconclusive = small, poorly fitted or top-dose-only effect; inactive = no such curve, though single readings can be large or run the other way; tested in HEK293T cells; further: nearly all actives have a fitted effect of over 45% in size; luciferase light after 4 h
* hit, by the source's call; ? = inconclusive; [ ] = another dose, or the depositor's remark. On the % scale 0 is the no-effect control and ±100 the full control effect; potency means the concentration at half of the fitted maximal effect.

Values in the order: RE007 growth inh	StopGo reporter
[1] COc1ccc(Oc2c(OC)cc(NCc3ccc(CN)cc3)c3ncccc23)cc1
 : 10%	-10%
[2] O=C(Cc1ccc(NC(=O)C2CCN(C(=O)C3CCC3)CC2)cc1)Nc1ccc(C(=O)N2CCOCC2)cc1
 : -8%	-9%
[3] CC1(Cc2ccc(OC(F)(F)F)cc2)C(=O)Nc2c(Cl)ccc(Cl)c21 (stereo not drawn)
 : -4%	?
[4] C[C@H](CO)N1C[C@H](C)[C@@H](CN(C)S(=O)(=O)c2ccccc2)OCc2cnnn2CCCC1=O
 : -4%	-18%
[5] O=C(Nc1ccc(N2CCOCC2)cc1)c1csc([C@H]2C[C@H](O)[C@@H](CO)O2)n1
 : 13%	-1%
[6] COCCNC(=O)C1(C)CCCN(CCOc2ccc(Cl)cc2)C1 (stereo not drawn)
 : -1%	-23%
[7] Cc1ccc(S(=O)(=O)N2CC3(O)CN(C(=O)OC(C)C)N(C(=O)OC(C)C)CC3(OC(=O)NCc3ccccc3)C2)cc1 (stereo not drawn)
 : 13%	0%
[8] Cc1ccc(Nc2nc(C)cc(C)c2C#N)c(C)c1
 : -14%	0%
[9] O=C(OCCOc1ccc(Cl)cc1)c1cc(S(=O)(=O)N2CCCCC2)ccc1N1CCOCC1
 : 21%	?
[10] CN(Cc1ccccc1)C(=O)c1ccc(Nc2nc(C(N)COCc3ccccc3)cs2)nc1 (stereo not drawn)
 : 16%	5%
[11] Cc1ccc(S(=O)(=O)N2C[C@H]3[C@H]4C(=O)N(Cc5ccccc5)C(=O)[C@H]4CC(=O)[C@H]3[C@@H]2c2cccc3ccccc23)cc1
 : -14%	-28%
[12] Cc1cccc(OCC(=O)Nc2ccc(C(=O)Nc3ccccc3C(=O)O)cc2)c1
 : 1%	22%
[13] O=C(COC(=O)c1ccccc1Cl)NCc1cccs1
 : 4%	72%[activator]
[14] CCOC(=O)C[C@H]1c2ccccc2S(=O)(=O)N1C1CC1
 : 10%	6%
[15] CN1CCN(c2ccc(S(=O)(=O)N3CCOCC3)cc2NC(=O)COc2ccc(C#N)cc2)CC1
 : 7%	-12%
[16] Cc1ccc(S(=O)(=O)N2C[C@H]3[C@H]4C(=O)N(Cc5ccccc5)C(=O)[C@H]4CC(=O)[C@H]3[C@@H]2c2ccccc2F)cc1
 : 1%	-2%
[17] Cc1ccc(-c2csc(C(O)c3ccc(F)c(F)c3)n2)cc1C (stereo not drawn)
 : -3%[18.4 µM]	0%
[18] O=C1NC[C@H](CC2CCCCC2)N(CCc2cccc3ccccc23)C1=O
 : 6%	-17%
[19] Cc1cn([C@H]2C[C@H](O)[C@@H](CNCc3ccc(C#CCCO)cc3)O2)c(=O)[nH]c1=O
 : -16%	-17%
[20] N#Cc1ccc(NC(=O)COC(=O)C2CCC2)cc1
 : -12%	-12%
[21] C[C@@H]1CN([C@@H](C)CO)C(=O)CCCn2nncc2CO[C@H]1CN(C)C(=O)C1CC1
 : -3%	-8%
[22] CNc1n[nH]c(-c2ccccc2)n1
 : 11%	5%
[23] O=C(NCc1ccc(Cl)nc1)c1ccc2sc([C@@H]3O[C@H](CO)[C@H](O)[C@H](O)[C@H]3O)nc2c1
 : 7%	-19%
[24] COc1cccc(CNC(=O)[C@@H]2CCCN2C(=O)[C@H]2CCCCN2C(=O)c2cccc(OC)c2)c1
 : 13%	-14%
[25] Cc1cccc(CN2CCN(C3CN(Cc4ccc(F)cc4)S(=O)(=O)C3)CC2)c1 (stereo not drawn)
 : ?	-16%
[26] Nc1ncnc2c1nc(Br)n2[C@@H]1O[C@@H]2COP(=O)(O)O[C@H]2[C@H]1O
 : -1%[18.4 µM]	-1%
[27] COCCN1C(=O)COc2ccccc2C1C(=O)NCc1ccccc1 (stereo not drawn)
 : -4%	-11%
[28] CN(CC(=O)Nc1ccc(F)cc1)C(=O)COC(=O)c1nc(Cl)ccc1Cl
 : 3%	-12%
[29] Cc1ccc(S(=O)(=O)Nc2ccccc2C=NNC(=O)c2ccncc2)cc1
 : 4%	3%
[30] CCOC(=O)CCCCCC(=O)Nc1ccc2c(c1)C(=O)N([C@H](C)CO)C[C@@H](C)[C@@H](CN(C)C(=O)CCC(F)(F)F)OCCCC[C@H](C)O2
 : -13%	?

Part of the list above in another layout.
(28) CN(CC(=O)Nc1ccc(F)cc1)C(=O)COC(=O)c1nc(Cl)ccc1Cl
(29) Cc1ccc(S(=O)(=O)Nc2ccccc2C=NNC(=O)c2ccncc2)cc1

Assay by compound	28	29
RE007 growth inh	3%	4%
StopGo reporter	-12%	3%

(next part)
Values in the order: RE007 growth inh	StopGo reporter
[31] N#Cc1c(Cl)cccc1N1CCSCC1
 : 1%[18.4 µM]	-10%
[32] COCCN(CC(=O)Nc1cccc(C)c1C)C(=O)/C=C/c1ccc2c(c1)OCCO2
 : -2%	0%
[33] COC(=O)C1CC(c2ccccc2)N(c2ccccc2)O1 (stereo not drawn)
 : 4%	-19%
[34] CCOC(=O)NC(=S)Nc1cccc(C)n1
 : 8%	-7%
[35] COc1cccc(C(c2nnnn2C2CCCCC2)N2CCC3(CC2)C(=O)NCN3c2ccccc2)c1OC (stereo not drawn)
 : 5%	41%[activator]
[36] CSC(=NS(=O)(=O)c1ccccc1)NNC(=O)c1c(-c2c(Cl)cccc2Cl)noc1C
 : 20%[18.4 µM]	-8%
[37] CC(C)C[C@H]1CNC(=O)C(=O)N1C[C@@H]1CCCN1C[C@H](Cc1ccccc1)N1C[C@H](Cc2ccccc2)N(CCc2ccccc2)C(=O)C1=O
 : 5%	57%[activator]
[38] O=C(Nc1ccc(F)cc1)C(c1ccncc1)N1CCN(C(=O)c2ccco2)CC1 (stereo not drawn)
 : -21%	-16%
[39] CCCCn1nnnc1C(c1ccccc1)N1CCN(c2ccc(F)cc2)CC1 (stereo not drawn)
 : -3%	-6%
[40] COc1cccc(-c2cnc3c(NC=O)cc(-c4ccccc4Oc4ccccc4)cn23)c1
 : -2%[18.4 µM]	-24%
[41] OC[C@@H]1CN(Cc2ccncc2)C[C@H](n2cnc3c(NCc4ccco4)ncnc32)O1
 : 12%	-22%
[42] CC(=O)Nc1cc(-c2ccc(C(=O)NC3CC3)cc2)cn2c(-c3cccc(C(C)=O)c3)cnc12
 : 2%	?
[43] Cc1cnc(C)c(Nc2nc(C(N)Cc3ccc(F)cc3)cs2)n1 (stereo not drawn)
 : -9%	-21%
[44] CCOC(=O)N1CCN(C(=O)C[C@@H]2C[C@@]3(C(=O)OC)CCCCC=C3N(Cc3ccccc3)C2=O)CC1
 : 6%	7%
[45] O=C1N(Cc2ccccc2)c2ccccc2OC1(F)F
 : 14%	-15%
[46] COC(=O)c1ccc2nc(C3CCCCC3)c(Cc3ccc(OC)cc3C)n2c1
 : -23%	-9%
[47] CCCCCCCCC(=O)N1C(C)CCC1C (stereo not drawn)
 : 6%	8%
[48] CCNC(=O)C1CCCN(C(=O)c2ccc(-c3ccccc3)cc2)CC1 (stereo not drawn)
 : 2%	4%
[49] CCCCCNC(=O)C(c1ccc(-c2ccccc2)cc1)n1c(=O)c(-c2cc3ccccc3[nH]2)nc2ccccc21 (stereo not drawn)
 : 0%	5%
[50] CCCCCCCCNCCS(=O)(=O)NC1CCCCC1
 : -9%	0%
[51] O=C1NC[C@H](CCCCN2CCN(CCC3CCCCC3)C(=O)C2=O)N(CC2CCCCC2)C1=O
 : -7%	-8%
[52] COc1cccc(C(=O)NNC(=O)c2ccc3ccccc3c2O)c1
 : -6%	-1%
[53] COc1ccc(-c2cnc3cccnn23)cn1
 : 7%[18.4 µM]	5%
[54] COc1cc(OC)cc(-c2noc([C@H]3C[C@H](O)[C@@H](CO)O3)n2)c1
 : -5%[18.4 µM]	17%
[55] COc1ccc(NC(=O)N(C)C[C@@H]2OCc3cnnn3CCCC(=O)N([C@@H](C)CO)C[C@H]2C)c(OC)c1
 : -3%	-5%
[56] CCCC1NC(=O)c2cccnc2-n2c1nc1cc(C)cc(C)c1c2=O (stereo not drawn)
 : -4%	-20%
[57] COC(=O)[C@]12CCCCC=C1N(Cc1cccc3ccccc13)C(=O)[C@H](CC(=O)NCCCCc1ccccc1)C2
 : -7%	-20%
[58] O=C(NC1CCN(Cc2ccccc2)CC1)c1ccccc1NS(=O)(=O)c1ccc(F)c(F)c1
 : 2%	-4%
[59] COC(=O)[C@]12CCCCC=C1N(Cc1ccccc1)C(=O)[C@H](CC(=O)NCCCN1CCCC1=O)C2
 : -7%	-16%
[60] O=C(NCC1CCCO1)c1cccc(S(=O)(=O)Nc2ccccc2Cl)c1 (stereo not drawn)
 : 5%	0%
[61] CC1(C)CC(NC(=O)C2CCN(S(=O)(=O)c3ccc(Cl)c(C(F)(F)F)c3)CC2)CC(C)(C)N1
 : 8%	5%
[62] CCCCNC(=O)C1(C)CCN1C(=O)c1cccnc1Oc1ccccc1 (stereo not drawn)
 : -8%[18.4 µM]	-4%
[63] COc1cc2c(cc1CNC[C@H]1O[C@@H](n3ccc(N)nc3=O)[C@H](O)[C@@H]1O)OCO2
 : -4%	0%
[64] CCCCCC(=O)N1C[C@H](O)[C@@H](n2cc(C3CC3)nn2)C[C@@H]1c1ccc(OC)cc1
 : 2%	-22%
[65] CCOC(=O)N1CCN(C(=O)c2ccc(CS(=O)c3cccc(C)c3)o2)CC1 (stereo not drawn)
 : 3%	-11%
[66] COCCCNC(=O)c1ccc2sc(C3=C[C@@H](O)[C@@H](O)[C@@H](CO)O3)nc2c1
 : 3%	-17%
[67] CCCCNC(=O)C1c2ccccc2OCC(=O)N1Cc1ccccc1 (stereo not drawn)
 : 4%	-3%
[68] CCOc1ccc2oc(C(=O)Nc3ccc(C)cn3)c(C)c2c1
 : -17%	49%[activator]
[69] CN(CCCn1ccc(NC(=O)OCc2ccccc2)nc1=O)CCc1ccccn1
 : -20%	-3%
[70] NC1=NC[C@H](Cc2ccccc2)N1CC1CCCCC1
 : 3%	-28%
[71] CN(C)CCNc1ncnc2c1ncn2[C@H]1CN(Cc2ccco2)C[C@@H](CO)O1
 : 9%	-14%
[72] CCCCNC(=O)C[C@@H]1C[C@@]2(C(=O)OC)CCCCC=C2N(Cc2ccccc2)C1=O
 : 2%	-7%
[73] CCCCn1nnnc1C(c1ccccc1)N1CCN(c2ccc(C(F)(F)F)cc2[N+](=O)[O-])CC1 (stereo not drawn)
 : -9%	?
[74] CCCNC(=O)c1cc(C2CCCN(C(=O)C3CC3)C2)on1 (stereo not drawn)
 : -14%	28%
[75] CCOC(=O)c1cc2c(c(-c3cccc(-c4cc5ccccc5o4)c3)n1)[C@@H](CCO)N(S(=O)C(C)(C)C)C2 (stereo partly drawn)
 : -5%	-6%
[76] O=C(C(=O)N1CCN(C(=O)c2ccco2)CC1)c1ccccc1
 : 7%	-17%
[77] COc1cccc(CNc2nc3cc(-c4ccc(OC)cc4C)sc3c(=O)n2C)c1
 : 12%	0%
[78] CCOC(=O)C1=CCN(S(=O)(=O)c2ccc(F)cc2)C1c1cccc(C)c1 (stereo not drawn)
 : -8%	-23%
[79] CNc1cccc(-c2cc(OC)ccc2OC)n1
 : -10%	-15%
[80] COc1ccc(NC(=O)c2cc(C3CCCCN3S(=O)(=O)c3cccs3)on2)c(C)c1 (stereo not drawn)
 : 6%	-28%

The results go on.
Values in the order: RE007 growth inh	StopGo reporter
[81] C[C@@H]1CN([C@@H](C)CO)C(=O)CCCn2nncc2CO[C@@H]1CN(C)C(=O)Nc1ccccc1
 : -7%	-21%
[82] COC(=O)Cn1c(C(=O)N2CCCC2)cc2c1C[C@H]1CN(C(=O)c3ccccc3)[C@@](Cc3ccc(OC)cc3)(C(=O)OC)[C@@H]21
 : 1%	0%
[83] Cc1cc(Br)cn2c(Cc3cccc(Cl)c3)c(-c3cccc(Cl)c3)nc12
 : 28%	-23%
[84] CSCCC(c1nc2ccccc2[nH]1)n1c(-c2cc(C(F)(F)F)cc(C(F)(F)F)c2)nc2ccccc21 (stereo not drawn)
 : 4%	?
[85] COc1ccc(Cc2c(-c3ccco3)nc3ccc(Cl)cn23)c(C)c1
 : -20%	?
[86] COC(=O)Cc1ccc(OC2(C)CCN(Cc3ccccc3)C2)cc1 (stereo not drawn)
 : -24%	-19%
[87] CCOC(=O)C1=C(CC)Nc2ccccc2N=C1NC(=O)c1ccc(OC)c(S(=O)(=O)N2CCOCC2)c1
 : -8%	-8%
[88] Nc1[nH]c(C(=O)c2ccccc2)c(-c2ccc([N+](=O)[O-])cc2)c1C(=O)NCCc1c[nH]c2ccccc12
 : -12%	-9%
[89] CCN1C(=O)[C@H]2[C@@H](c3ccc(C)cc3)N[C@]3(CCCN(CC4CCCCC4)C3=O)[C@H]2C1=O
 : -1%	-13%
[90] CCCNC(=O)C1(C)CCCN(C(=O)C(c2ccccc2)c2ccccc2)C1 (stereo not drawn)
 : 3%	-23%
[91] COc1ccc(COC(=O)CCc2c[nH]c3ccccc23)cc1F
 : 14%	-6%
[92] CC(NCC(=O)NC(=O)NCCC1=CCCCC1)c1ccc(S(N)(=O)=O)cc1 (stereo not drawn)
 : 5%	-13%
[93] COC(=O)[C@]1(Sc2ccc(OC)cc2)CC(=O)N[C@@H]1c1ccccc1
 : 1%	-4%
[94] COc1ccc(NC(=O)Nc2c(O)ccc3ccccc23)cc1
 : -6%	132%[activator]

By substructure: the compounds so far containing a thiophene ring, fused or not
Values in the order: RE007 growth inh	StopGo reporter
[13] O=C(COC(=O)c1ccccc1Cl)NCc1cccs1
 : 4%	72%[activator]
[77] COc1cccc(CNc2nc3cc(-c4ccc(OC)cc4C)sc3c(=O)n2C)c1
 : 12%	0%
[80] COc1ccc(NC(=O)c2cc(C3CCCCN3S(=O)(=O)c3cccs3)on2)c(C)c1 (stereo not drawn)
 : 6%	-28%

Screening results from PubChem BioAssay.

An excerpt; rates above refer to the full screens.
